H5N1 antiviral – MDCK cell protection from H5N1 avian flu; cytopathic effect, luminescence, 72 h; stronger effect = higher value; no value below 0 was filed and about half of the inactive calls have no number; reference of the scale not given here; inhibition, % at 50 µM; 96,000 tested, 0.07% active; in the data active = inhibition above about 25%
* = called active by the depositor; i = inactive.

SMILES	H5N1 antiviral
O=C(CCCCCN1C(=O)CCC1=O)Nc1ccc2c(c1)OCO2	1.0
Cc1ccc(NNS(=O)(=O)c2ccc(C)cc2)cc1	0.9
CCN1CCN(C(=O)c2oc(=O)c3ccccc3c2-c2ccc(C)cc2)CC1	1.7
O=C(CSc1nnc(-c2cccnc2)n1Cc1ccco1)NCc1ccc2c(c1)OCO2	2.6
CC1(C)Cc2cccc(OCC(=O)N3CCN(S(=O)(=O)c4ccc(F)cc4)CC3)c2O1	1.9
COc1ccc([N+](=O)[O-])cc1NC(=O)CCc1ccccc1	i
COc1cccc(-c2[nH]nc3c2C(c2ccc(C)o2)C(C#N)=C(N)O3)c1 (stereo unspecified)	0.5
CC1CCc2cc(F)ccc2N1C(=O)CSc1nnc(-c2cccs2)n1C (stereo unspecified)	4.9
CC(=O)Nc1ccc(OC(=O)c2cc3ccccc3oc2=O)cc1	0.6
CC1(C)CC(=O)c2c(nc(SCC(=O)Nc3nsc(-c4ccccc4)n3)c(C#N)c2-c2ccccc2)C1	i
CCc1nc(N2CCCC2C(=O)O)c2oc3ccccc3c2n1 (stereo unspecified)	0.0
C/C(=N\N=C(/N)SC1CC(=O)N(c2cccc(Cl)c2)C1=O)c1cccs1 (stereo unspecified)	1.0

Structural class, the compounds so far with a thiophene ring, fused or not.
SMILES	H5N1 antiviral
CC1CCc2cc(F)ccc2N1C(=O)CSc1nnc(-c2cccs2)n1C (stereo unspecified)	4.9
C/C(=N\N=C(/N)SC1CC(=O)N(c2cccc(Cl)c2)C1=O)c1cccs1 (stereo unspecified)	1.0

More structures follow.
SMILES	H5N1 antiviral
CSc1nc(Oc2ccc(F)cc2F)cc(C(F)(F)F)n1	i
COc1ccccc1NC(=O)N(Cc1ccco1)Cc1cc2cccc(C)c2[nH]c1=O	i
Nc1nnc(SCCOc2ccc(Br)cc2)s1	i
c1ccc(-n2ncc3c(NCc4ccccn4)ncnc32)cc1	i
CCOc1ccc(-c2nnc(-c3ccccc3)n2-c2ccccc2)cc1	0.7
CCN(CC)c1ccc(-c2c(C#N)c(N)nc(OC)c2C#N)cc1	1.7
CCOC(=O)c1sc2nc(N3CCOCC3)c3c(c2c1N)CCN(C)C3	i
CCc1ccc(S(=O)(=O)NCCc2csc(-c3cccnc3)n2)s1	0.9
CCN(CC)S(=O)(=O)c1ccc(C(=O)NCc2ccc3c(c2)cc(C)n3C)cc1	i
COc1cc(C(=O)NCC(=O)OCC(=O)c2ccc[nH]2)cc(OC)c1OC	0.4
Cc1sc(NC(=O)CSc2nnc(C)c(=O)[nH]2)c(C#N)c1C	0.3
COc1ccc(N2CCN(C(=O)c3ccc(NS(=O)(=O)c4cccc(F)c4)cc3)CC2)cc1	1.2

Rewritten with each value named: part of the list above.
c1ccc(-n2ncc3c(NCc4ccccn4)ncnc32)cc1
  H5N1 antiviral: i

CCc1ccc(S(=O)(=O)NCCc2csc(-c3cccnc3)n2)s1
  H5N1 antiviral: 0.9

C/C(=N\N=C(/N)SC1CC(=O)N(c2cccc(Cl)c2)C1=O)c1cccs1 (stereo unspecified)
  H5N1 antiviral: 1.0

(next part)
SMILES	H5N1 antiviral
Cc1ccc(-c2nnc(C)c(N3CCOCC3)n2)cc1	i
CCCNC(=O)NC(=O)CSc1nc2cc(C(=O)OC)ccc2c(=O)n1-c1ccccc1	i
Cc1ccc(C(=O)NC(=S)NCC(=O)c2ccccc2)cc1	i
COC(=O)c1nn(-c2c(C)n(C)n(-c3ccccc3)c2=O)cc1O	1.5
CN(CC(=O)OCC(=O)NC(=O)c1cccn1C)S(=O)(=O)c1ccc(Cl)cc1	i
CCNS(=O)(=O)c1ccc(NC(=O)Cc2ccc(F)cc2)cc1	0.4
O=C(CCCOc1ccc(Cl)cc1)N1CCOCC1	1.3
COc1ccc(OCCNc2cc(Cl)ccc2[N+](=O)[O-])cc1	0.5
Cc1ccc(NC(=O)C2CCCN2S(=O)(=O)c2cccc3cccnc23)cc1F (stereo unspecified)	2.6
Cc1ccc(S(=O)(=O)N2CCN(C(=O)CN3CCN(C)CC3)C2)cc1	i
Cc1cc(NC(=O)NC(=O)c2cccc(OC(F)(F)C(F)F)c2)n[nH]1	0.3
CC(C)(C)NS(=O)(=O)c1ccc(NS(=O)(=O)Cc2ccccc2)cc1	0.8
Cc1nnc(SCC(=O)N2CCCc3ccccc32)[nH]c1=O	i
N#Cc1ccc(CSc2nnc(-c3ccncc3)n2CCc2ccccc2)cc1	1.9
CCN1C(=O)/C(=C\c2ccc3c(c2)OCO3)C(C(=O)OC)=C1C	5.7
CCOC(=O)c1cccc(NC(=O)C2CCCO2)c1 (stereo unspecified)	0.4
CC(C)OC(=O)c1cn(-c2ccccc2)nc1-c1ccc2c(c1)OCCO2	5.3
Cc1cccc(NC(=O)CC2NCCNC2=O)c1 (stereo unspecified)	0.2
Cc1nc2c(C(=O)N3CCN(c4ccccn4)CC3)cnn2c(C)c1Cc1cccc(Cl)c1	0.5
CC(=O)NC1=NN(C(C)=O)C(C)(CS(=O)(=O)c2ccc(C)c(C)c2)S1 (stereo unspecified)	0.5
COc1ccc(CCn2c(N)cc(=O)[nH]c2=S)cc1OC	i
CCOC(=O)N1CCN(S(=O)(=O)c2ccc(C(=O)Nc3nc4ccccc4s3)cc2)CC1	0.4
COC(=O)[C@H](C)NC(=O)Nc1ccc(OC)c(OC)c1	0.3
Cc1ccc(C(=O)O/N=C/c2c(C(F)(F)F)nn(C)c2Sc2ccc(Cl)cc2)cc1	i
Cc1nc2ccccn2c1C(=O)c1ccccc1	i
CCCCCc1nnc(NC(=O)C(=O)OCC)s1	0.2
COc1ccc(NS(=O)(=O)Cc2ccccc2)cc1OC	0.1
Cc1cc(=O)oc(C)c1C(=O)N1CCCCC1	i
COc1ccc(CCNCc2ccc(F)cc2)cc1OC	i
Cc1c(C(=O)N2CCN(c3ccccn3)CC2)oc2ccccc12	2.0
COC(=O)CSc1ccc2nnc(-c3ccc(F)cc3)n2n1	i
COc1ccc(C(F)(F)F)cc1NC(=O)c1nc2nc(C)cc(C(F)F)n2n1	1.8
CCOC(=O)c1ccc(-c2n[nH]c(=O)c3ccccc23)cc1	2.0
COc1ccc(C2N(S(=O)(=O)c3ccc(C)cc3)CCN2S(=O)(=O)c2ccc(C)cc2)cc1	0.1
O=C(c1cccc(F)c1)N1CCC(N2CCOCC2)CC1	i
Cc1ccc(-n2c(N)c(C(=O)N3CCOCC3)sc2=S)c(C)c1	i

Quoted at random: three records from the list
SMILES	H5N1 antiviral
COc1ccc(C2N(S(=O)(=O)c3ccc(C)cc3)CCN2S(=O)(=O)c2ccc(C)cc2)cc1	0.1
O=C(c1cccc(F)c1)N1CCC(N2CCOCC2)CC1	i
CCOC(=O)c1ccc(-c2n[nH]c(=O)c3ccccc23)cc1	2.0

Further records:
SMILES	H5N1 antiviral
Fc1ccc(C(c2nnnn2CCc2ccccc2)N2CCCc3ccccc32)cc1 (stereo unspecified)	0.7
COc1ccccc1N1C(=O)CC(Nc2ccc(N3CCOCC3)cc2)C1=O (stereo unspecified)	i
CCn1c(COc2ccccc2C)nnc1SCC(=O)NC1CCCC1	i
Cc1cc(C)c(C)c(/C=C(/C#N)C(N)=S)c1C	0.5
N#CCCn1c(SCC(=O)NCC2CCCO2)nc2ccccc21 (stereo unspecified)	0.8
COc1ccccc1N1CCN(S(=O)(=O)c2ccc(Br)s2)CC1	i
CCOC(=O)c1ccc(NC(=O)CSc2nnc(CNC(=O)c3c(F)cccc3Cl)o2)cc1	0.7
Cc1ccc2nc(C)c(Cl)c(=O)n2c1	i
CC(C)CNC(=O)c1c(N)n(Cc2ccc3c(c2)OCO3)c2nc3ccccc3nc12	2.0
Clc1ccc(COn2c(-c3ccccc3)nc3ccccc32)cc1	1.9
Cc1[nH]n(-c2cccc3ccccc23)c(=O)c1C=Nc1ccc2[nH]c(=O)[nH]c2c1	i
CCOCCCNC(=O)C1CCN(C(=O)N(C)C)CC1	0.4
Cc1nc2nc(COc3ccccc3)[nH]n2c(=O)c1C	i
Cc1cc2c(cc(C(=O)OCC(=O)NCc3ccco3)n2C)s1	0.3
Cc1sc(N/N=C/C=C/c2ccccc2)nc1-c1ccccc1	i
Cc1ccc(Oc2ccc(Oc3ccc(C)cc3)nn2)cc1	i
N#CCSc1nc(N)c(C#N)c(C2CCCCC2)c1C#N	6.3
CCOC(=O)c1c(C)[nH]c(C(=O)COC(=O)c2oc3ccccc3c2C)c1C	i
CCc1cc2c3c(c(=O)oc2cc1OC)CCCC3	i
NC(=O)C1CCN(C(=O)CN2CCN(c3cccc(C(F)(F)F)c3)CC2)CC1	0.1
Cc1c(C(N)=O)sc2ncn(CC(=O)OC(C)C)c(=O)c12	i
O=C(NCc1ccco1)c1cc(-c2cccnc2)nc2ccccc12	i
CCCCOC(=O)Nc1nc2ccc(OC)cc2s1	i
COc1ccccc1/C=C/C=N/N1CCN(c2ccccn2)CC1	i
CCOc1ccccc1NC(=O)CN(c1ccc(C)cc1)S(=O)(=O)c1c(C)n[nH]c1C	3.1
Cc1cc(Nc2ccc3c(c2)OCCO3)n2nc(C)nc2n1	3.3
COc1ccc2c(CC(=O)Nc3ccc(OC)c(NS(=O)(=O)c4ccc(F)cc4)c3)coc2c1	2.8
CCc1nnc(NC(=O)CSc2nnc(-c3c[nH]c4ccccc34)n2CCOC)s1	0.6
COc1ccc2c(C=Nc3c(C)n(C)n(-c4ccccc4)c3=O)c(O)n(Cc3ccco3)c(=O)c2c1	0.1
CN1C(=O)Cc2cc(S(=O)(=O)N3CCOCC3)ccc21	1.0
O=c1nc(-c2ccccc2)n(-c2ccccc2)c2ncccc12	i
CCOC(=O)C1CCN(C(=O)CCc2nc3ccccc3[nH]2)CC1	1.1
CCCc1nc2c(sc3nc4c(cc32)COC(C)(C)C4)c(=O)n1Cc1ccco1	1.1
CC(C)C(C(=O)Nc1ncn[nH]1)N1C(=O)c2ccccc2C1=O (stereo unspecified)	0.1
CCc1nnc(NC(=O)Cn2ccc(C(F)(F)F)n2)s1	i
O=C(/C=C/c1ccc([N+](=O)[O-])cc1)Nc1cccnc1	1.3

Nothing new here: an excerpt of the list.
SMILES	H5N1 antiviral
CCOC(=O)C1CCN(C(=O)CCc2nc3ccccc3[nH]2)CC1	1.1
CCCc1nc2c(sc3nc4c(cc32)COC(C)(C)C4)c(=O)n1Cc1ccco1	1.1
CC(C)C(C(=O)Nc1ncn[nH]1)N1C(=O)c2ccccc2C1=O (stereo unspecified)	0.1
CCc1nnc(NC(=O)Cn2ccc(C(F)(F)F)n2)s1	i
O=C(/C=C/c1ccc([N+](=O)[O-])cc1)Nc1cccnc1	1.3

Other records.
SMILES	H5N1 antiviral
CC1(C)NC(=O)N(CC(O)CN2CCOCC2)C1=O (stereo unspecified)	i
CCOC(=O)C(C)Oc1cccc2c(=O)n(CC(=O)NCc3ccc4c(c3)OCO4)ccc12 (stereo unspecified)	i
Cc1ccc2c(c1)nnn2C1CCN(CC(=O)NCCc2ccccc2)CC1	2.3
CCOc1ccc(-n2cc(C(=O)NC(C)C)c3cc(OC)c(OC)cc3c2=O)cc1	i
O=C1N(CN2C(=O)C3(OCCO3)c3ccccc32)c2ccccc2C12OCCO2	0.3
Cc1c(C(=O)N2CCCCC2)sc(NC(=O)C2CC2)c1C#N	i
Cn1c(SCC(=O)N2CCOCC2)nnc1-c1cnccn1	0.1
COC(=O)COc1ccc2oc(=O)cc(C)c2c1	i
CC(C)(C)c1ccc(OCC(=O)NCc2ccco2)c(Br)c1	0.5
O=C1C=C(c2ccc(Cl)cc2)C(=O)N1Nc1ccccc1	i
COC(=O)Nc1ccc(C)cc1NC(=O)OC	i
COc1ccc(OC)c(/C=N/NC(=O)c2csc3ccccc23)c1	5.7
CCc1ccc(/C=C2\SC(=S)N(CCCC(=O)Nc3ccccn3)C2=O)cc1	12
CN(C)S(=O)(=O)c1cccc(NC(=O)COC(=O)c2ccc(Br)o2)c1	0.0
c1ccc(N(c2ccccc2)c2nc(-n3ccnc3)nc(-n3ccnc3)n2)cc1	2.2
c1ccn2cc(CSc3nnc4ccccn34)nc2c1	1.3
COc1ccc(C2c3c(-c4cc(Cl)c(C)cc4O)n[nH]c3C(=O)N2Cc2cccnc2)cc1OC (stereo unspecified)	2.0
Cc1ccc(C)c(NC(=O)Cn2nnc(C(=O)Nc3c(C)cccc3C)c2N)c1	0.4
C/C(NC(=O)c1cccc(F)c1)=C1/C(=O)C[C@@H]2[C@H]1C2(C)C	0.3
CCOC(=O)c1c(N)sc(C(=O)Nc2ccc3c(c2)OCO3)c1C	i
COc1ccc(CCNCc2ccncc2)cc1	0.1
c1ccc(-n2c(-c3ccco3)nnc2N2CCOCC2)cc1	i
COc1ccc(N(CC(=O)NCC2CCCO2)S(=O)(=O)c2ccc(C)cc2)cc1OC (stereo unspecified)	i
CCC(C(=O)NCc1ccc(OC)cc1)n1nc(C)n2c(cc3occc32)c1=O (stereo unspecified)	0.6
Cn1cnc2c(N3CCCCC3)nccc21	2.3
CC(C1CC2CCC1C2)n1c(COc2ccccc2F)nnc1SCC(N)=O (stereo unspecified)	1.6
O=C(Cn1ncc2ccccc21)N1CCC2(CC1)OCCO2	i
CCc1nnc2sc(-c3cc(-c4ccccc4)nc4ccccc34)nn12	3.9
COc1ccc(S(=O)(=O)N2Cc3ccccc3CC2C(=O)O)cc1OC (stereo unspecified)	1.9
Cc1cccc(-c2nc(CS(=O)CC(=O)N3CCc4ccccc4C3)c(C)o2)c1 (stereo unspecified)	3.0
COc1ccc(C2=NOC(C(=O)N3CCOCC3)C2)cc1OC (stereo unspecified)	i
CN(C)C(=O)c1cc(Cl)ccc1Sc1cc(Cl)ccc1Cl	0.3
Cc1ccc(-c2nnn(CC(=O)N(c3ccccc3F)C(C(=O)NC3CCCC3)c3ccco3)n2)o1 (stereo unspecified)	2.8
CC1(C)Cc2c(C#N)c(NCc3ccco3)nc(-c3ccco3)c2CO1	5.4
CSc1ccc(N2CCN(CCCNC(=O)Nc3ccccc3F)CC2)cc1	0.4
CC1CC(C)CN(C(=O)COc2ccc(-c3nnco3)cc2)C1 (stereo unspecified)	i
CC(=O)N(c1c(C)n(C)n(-c2ccccc2)c1=O)C1(C(=O)NC2CCCC2)CCCCC1	0.7
CCSc1nnc2c(n1)OC(C)(C)Nc1ccccc1-2	0.8
CCOC(=O)SC1=N/C(=C\c2ccc(N(C)C)cc2)C(=O)S1	0.2
O=C(NCc1ccccc1Cl)C1CCN(S(=O)(=O)N2CCC3(CC2)OCCO3)CC1	i
CC(C)(C)c1ccc(CN2C(=O)CN=C(c3ccccc3)c3ccccc32)cc1	5.9

These rows are one share of the data; rates above refer to the full screens.
